GIV Gai3 FP: inhibitors of GIV peptide binding to Galpha-i3, primary screen, biochemical, fluorescence polarization, FITC-GIV GBA peptide, rat Galphai3 | Guanine nucleotide-binding protein G(i) subunit alpha-3 (Rattus norvegicus), P08753 | 90 min; hits give low values; scaled: aluminum fluoride 0%, vehicle 100% | percent of control (FP), % (test concentration not listed) | 0.42% of 210,000 active | AID 1224905, 2016;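 active = replicate mean at 85% of control or lower, very high polarization wells dropped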;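 also: wells of about 15 µL received 100 nL stock; the first replicate is given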
Target sequence (P08753 whole entry, looked up): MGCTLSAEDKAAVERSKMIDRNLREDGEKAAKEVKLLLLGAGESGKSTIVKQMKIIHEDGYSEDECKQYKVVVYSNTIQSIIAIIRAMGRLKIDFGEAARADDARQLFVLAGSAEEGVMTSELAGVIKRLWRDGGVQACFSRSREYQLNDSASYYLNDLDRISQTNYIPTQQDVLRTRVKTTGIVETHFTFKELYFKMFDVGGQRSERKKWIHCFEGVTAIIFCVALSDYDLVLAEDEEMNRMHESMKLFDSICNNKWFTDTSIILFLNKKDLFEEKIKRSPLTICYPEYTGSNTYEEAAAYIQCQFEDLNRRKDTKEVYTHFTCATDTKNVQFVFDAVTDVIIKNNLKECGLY
Sa growth inh: S. aureus growth inhibition at 42 and 30 °C, primary screen, LtaS inhibitor project, RN4220, two temperatures | 0.53% of 170,000 active | OD600, 20 h, 42 °C; hits give low values | relative growth, % (concentration not given with the values) | AID 720641, 2013;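 active = growth at 42 °C up to 50% and 20 or more points under that at 30 °C, or under 10% at both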;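 also: 300 nL library stock went into each well; scaled to the means of positive and negative controls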
HCMV NEC inh: inhibitors of HCMV UL50-UL53 interaction, biochemical, HTRF. HCMV UL50-UL53 nuclear egress complex (human cytomegalovirus). normalized percent inhibition. inhibition, % (concentration not given with the values). 0.15% of 190,000 active. AID 1918969, 2023;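 active = both replicates at 50% or more, plus weaker picks with an unusually low signal ratio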;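 also: stock transfer was 100 nL into about 20 µL; 0% = negative control wells and 100% = wells with untagged competitor protein; inactives centre near -12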
Sa growth inh second temp: also measured in Sa growth inh; calls as there; relative growth, %; measured here: growth at 30 °C;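 optical density after 20 h as mean of two plates; 100% = untreated growth and lower means inhibition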
Active calls of the source: *; / = no result given.

#	Molecule	GIV Gai3 FP	Sa growth inh
1	COc1cccc(NC(=O)N2CCN(C(=O)Cc3csc4ccccc34)CC2)c1	98	/
2	COc1cc(C(F)(F)F)nc2ccc(C)c(NC(=O)c3ccc(Cl)cc3)c12	104	88
3	Cc1cc(-c2nn3c(-c4cccnc4)nnc3s2)c2ccccc2n1	115	/
4	COc1ccc(OCCC(=O)NCc2ccccc2)cc1	100	102
5	O=C(CCCC(=O)Oc1ccccc1F)Nc1cccc2ccccc12	/	84
6	C=Cc1ccc(Cn2c(C(=O)O)c(CNCc3cccs3)c3ccc(C)cc32)cc1	105	116
7	CC(C)Sc1nnc(Cc2cc(=O)[nH]c(=O)[nH]2)n1-c1ccc(F)cc1	95	90
8	N#Cc1cccc(Nc2c3c(nc4ccccc24)CCC3)c1	103	78
9	Cc1cc(C(F)(F)F)nc(Sc2nc(C)cc(C)c2C#N)n1	105	92
10	CC(C)C(=O)Nc1nc2c(ncn2C2OC(CO)C(O)C2O)c(=O)[nH]1 (stereo unspecified)	101	90

#	Sa growth inh second temp	HCMV NEC inh
1	/	-4
2	89	-2
3	/	-37
4	94	-5
5	87	2
6	57	/
7	80	/
8	85	-4
9	101	-8
10	93	-23

(further entries)
#	Molecule	GIV Gai3 FP	Sa growth inh
11	Cc1ccc(S(=O)(=O)N(CCC(=O)O)Cc2ccccc2)cc1	108	92
12	CCS(=O)(=O)N1CCc2cc(C(=O)Nc3cccc(C(C)=O)c3)ccc21	101	105
13	[O-][n+]1ccccc1OCc1ccc(Cl)cc1	/	82
14	O=S1(=O)C=CC(Nc2cccc3ccccc23)C1 (stereo unspecified)	109	94
15	O=C(Nc1ccccc1)N1CCc2c([nH]c3ccccc23)C1C(F)(F)F (stereo unspecified)	113	104
16	Cc1ccccc1C1CC(=O)Nc2ccc3ccccc3c21 (stereo unspecified)	106	127
17	COc1ccc(-c2nc(SCC(=O)NCc3nc4ccccc4n3C)n3[nH]c(=O)cc3n2)cc1	99	106
18	CC(=O)Nc1ccc(S(=O)(=O)NCc2cccn2Cc2ccc(F)cc2)cc1	108	102
19	CCc1ccccc1NC(=O)N1CCN2CCCCC2C1 (stereo unspecified)	106	91
20	O=S(=O)(Nc1ccc(CN2CCCCC2)cc1)c1ccc(-n2cccn2)cc1	111	111

#	Sa growth inh second temp	HCMV NEC inh
11	92	/
12	90	5
13	95	-15
14	89	-42
15	94	-6
16	91	-6
17	86	/
18	91	-29
19	89	-25
20	83	-33

Continuation:
#	Molecule	GIV Gai3 FP	Sa growth inh
21	Cc1ccc(Nc2c(-c3ccccc3O)nc3cc(C)ccn23)cc1	103	96
22	Cc1ccc(NC2=C(c3ccc(C(F)(F)F)cc3)C(=O)c3ccccc32)cc1C	100	108
23	CCN(C(=O)Cn1c(C(=O)OC)cc2sc(Cl)cc21)c1cccc(C)c1	101	112
24	FC(F)(F)c1ccc(N2CCSCC2)nc1	102	111
25	CCCCOc1cccc(NC(=O)CSc2nnc(C)s2)c1	107	100
26	N#Cc1cc(C(=O)c2ccccc2O)cn(-c2ccccn2)c1=O	/	93
27	CCNCc1ccc(-c2ccc(Br)cc2)o1	105	/
28	Oc1ccc(-c2nc3ccccn3c2Nc2ccc3c(c2)OCCO3)cc1	100	101
29	S=C(NC1CCCCC1)NN1CCOCC1	/	86
30	COc1ccc(-c2ccc(/C=N/NC(N)=O)o2)cc1	102	76

#	Sa growth inh second temp	HCMV NEC inh
21	83	-3
22	88	30
23	91	-28
24	75	-12
25	91	-40
26	87	-75
27	/	-43
28	67	-17
29	86	-11
30	117	3

Entries by screen from above.
Compounds 9–18 in Sa growth inh: 92, 90, 92, 105, 82, 94, 104, 127, 106, 102
Compounds 9–18 in GIV Gai3 FP: 105, 101, 108, 101, /, 109, 113, 106, 99, 108
Compounds 9–18 in Sa growth inh second temp: 101, 93, 92, 90, 95, 89, 94, 91, 86, 91

Going on with the list.
#	Molecule	GIV Gai3 FP	Sa growth inh
31	CCCN(CCC)CCNC(=O)C1CCN(c2nc3cccnc3s2)CC1	116	/
32	CC(C)C(=O)N(Cc1cc2ccccc2[nH]c1=O)CC1CCCO1 (stereo unspecified)	99	105
33	Cc1n[nH]c(=S)n(/N=C/c2ccccc2)c1=O	106	65
34	COc1ccccc1N1CCN(C(c2ccc(Cl)cc2)c2nnc(-c3cccc(F)c3)o2)CC1 (stereo unspecified)	102	104
35	Cn1c(=O)c2c(ncn2CCCNC2=CC(=O)CC(C)(C)C2)n(C)c1=O	97	102
36	Cn1c(=O)c2nc(SCC(=O)O)n(Cc3ccc(Cl)cc3Cl)c2n(C)c1=O	103	/
37	O=C1C(=O)N(CCCn2ccnc2)C(c2cccc(Br)c2)/C1=C(\O)c1ccccc1 (stereo unspecified)	97	96
38	Cc1ccc2occ(CC(=O)Nc3nnc(C(C)C)s3)c2c1	108	107
39	CCN1C(=O)c2ccccc2S(=O)c2ccc(C(=O)N(C)C3CCCCC3)cc21 (stereo unspecified)	97	110
40	NC(=O)Cc1ccc(NC(=O)CCC(=O)O)cc1	/	104

#	Sa growth inh second temp	HCMV NEC inh
31	/	2
32	97	3
33	95	/
34	88	-11
35	90	3
36	/	-9
37	90	/
38	86	-8
39	91	/
40	91	1

The listing continues:
#	Molecule	GIV Gai3 FP	Sa growth inh
41	CCc1nc2ccc(C(=O)NCCc3ccc(OC)c(OC)c3)cc2nc1CC	101	110
42	Cc1[nH]c2ccccc2c(=O)c1Cc1c(C)[nH]c2ccccc2c1=O	96	95
43	CC1(C)CC(=O)C(/C=N/n2cnc3ccccc3c2=O)=C(O)C1	99	97
44	CCOC1CSc2sc(=S)sc2S1 (stereo unspecified)	/	36
45	CCOC(=O)Cc1csc(CS(=O)(=O)c2ccc(Cl)cc2)n1	101	104
46	Cc1sc2c(c1C)-c1nc(SCC(=O)C(C)(C)C)ncc1S(=O)(=O)N2C	103	102
47	C=CCn1cc(/C=c2\sc3n(c2=O)C(c2ccc(OC)c(OC)c2)C(C(=O)OCC)=C(C)N=3)c2ccccc21 (stereo unspecified)	111	/
48	CCCN(CC(=O)Nc1ccccc1C)C(=O)CSc1nnc2ccccn12	/	83
49	CN1C2CCC1CC(NC(=O)CSc1ccccc1)C2 (stereo unspecified)	107	93
50	CCC1CCc2nc3sc(C(=O)Nc4cc(Cl)ccc4OC)c(N)c3cc2C1 (stereo unspecified)	97	70

#	Sa growth inh second temp	HCMV NEC inh
41	88	/
42	86	-20
43	87	/
44	22	-71
45	105	-2
46	96	5
47	/	-15
48	92	-11
49	100	-6
50	86	/

Random excerpt: 4 entries already listed
#	Molecule	GIV Gai3 FP	Sa growth inh
42	Cc1[nH]c2ccccc2c(=O)c1Cc1c(C)[nH]c2ccccc2c1=O	96	95
44	CCOC1CSc2sc(=S)sc2S1 (stereo unspecified)	/	36
48	CCCN(CC(=O)Nc1ccccc1C)C(=O)CSc1nnc2ccccn12	/	83
46	Cc1sc2c(c1C)-c1nc(SCC(=O)C(C)(C)C)ncc1S(=O)(=O)N2C	103	102

#	Sa growth inh second temp	HCMV NEC inh
42	86	-20
44	22	-71
48	92	-11
46	96	5

(cont.)
#	Molecule	GIV Gai3 FP	Sa growth inh
51	COc1ccc(-n2ncc(C(=O)N3CCOCC3)c2C2CCN(C(=O)OC(C)(C)C)CC2)cc1	106	83
52	Oc1ccc(CNc2ccccc2C(F)(F)F)c2cccnc12	96	85
53	Cc1ccc(/C=C2/C(=O)/C(=C/c3ccc(C)o3)C3CCC2N3C)o1	215	78
54	Cn1nc(C(=O)OCc2nnc(-c3ccccc3)o2)c2ccccc2c1=O	/	89
55	COc1ccc(S(=O)(=O)c2cn(CC(=O)Nc3ccccc3)c3ccc(Cl)cc3c2=O)cc1	107	109
56	CCc1cccc(C)c1N(C(C)=O)C1=NCCC(=O)S1	100	102
57	CC1CCN(C(=O)/C=C/c2c(F)cccc2Cl)CC1	109	90
58	O=C(CCC(=O)c1ccc(Cl)cc1)OC1CCCCC1=O (stereo unspecified)	/	82
59	C#Cc1cccc(N2C(=O)CC(CC=C)C2=O)c1 (stereo unspecified)	103	93
60	CCOC(=O)c1ccc(N2C(=O)C3Sc4[nH]c(=O)sc4C4(CCCCC4)C3C2=O)cc1 (stereo unspecified)	/	107

#	Sa growth inh second temp	HCMV NEC inh
51	88	/
52	62	16
53	61	-75
54	104	14
55	87	-13
56	75	-7
57	85	-15
58	90	-9
59	90	-24
60	99	7

The list goes on:
#	Molecule	GIV Gai3 FP	Sa growth inh
61	CCOC(=O)c1c(NC(=O)N2CC(C)Oc3ccccc32)sc2c1CCCC2 (stereo unspecified)	97	/
62	CCN(Cc1ccccc1)C(c1ccccn1)c1nnnn1C1CCCCC1 (stereo unspecified)	104	81
63	COc1cc2c(O)c3c(c(-c4ccc5c(c4)OCO5)c2cc1OC)C(=O)OC3	110	92
64	O=C1c2ccccc2NC(c2cccs2)N1c1ccc2c(c1)OCO2 (stereo unspecified)	/	126
65	CCCN(CCC)C(=O)C1CCCN(c2ncnc3onc(-c4ccc(F)cc4)c23)C1 (stereo unspecified)	109	99
66	CCCOC(=O)C1=C(C)NC2=C(C(=O)C(C(=O)OC)C(C)C2)C1c1ccc(F)c(Br)c1 (stereo unspecified)	109	102
67	CN(C(=O)Cn1nc(Cc2ccncc2)c2ccccc2c1=O)c1ccccc1F	103	87
68	Cc1nn(C(C)C(=O)NC(C)C)c(=O)c2c(-n3cccc3)n(-c3ccccc3)nc12 (stereo unspecified)	100	/
69	CC(=O)c1ccc(C(=O)Nc2ccccc2-c2nc3ccccc3[nH]2)cc1	103	/
70	CN(C)c1ccc(/C=C/C=C/c2cc[n+](C)cc2)cc1	197	16

#	Sa growth inh second temp	HCMV NEC inh
61	/	-2
62	91	16
63	85	-13
64	80	-37
65	91	/
66	76	-11
67	86	4
68	/	10
69	/	-3
70	24	/

(more compounds)
#	Molecule	GIV Gai3 FP	Sa growth inh
71	COCCOC(=O)C1=C(C)NC2=C(C(=O)CC(c3ccc(OC)c(OC)c3)C2)C1c1cccc(Cl)c1Cl (stereo unspecified)	99	/
72	CC1CC(C)CN(S(=O)(=O)c2ccc(C(=O)NCc3ccccn3)cc2)C1 (stereo unspecified)	/	81
73	Cn1c(=O)n(CC(=O)O)c(=O)c2c1nc1n2CCS1	107	/
74	Cc1cc(C)c2c(=O)nc(SCc3ccccc3C)n(C3CC3)c2n1	99	100
75	Cc1ccc(C2c3[nH]c4ccccc4c3CCN2C(=O)CSCc2ccc(F)cc2)cc1 (stereo unspecified)	95	89
76	COc1cccc(/C=C/c2nc(C#N)c(NC3CCCCC3)o2)c1	103	105
77	CC(C)(C)NS(=O)(=O)c1ccc2c(c1)CCN2C(=O)NC1CCCCC1	97	/
78	Cc1cc(C)c2c(=O)cc(C(=O)Nc3sc4c(c3C#N)CCCC4)oc2c1	101	96
79	CCC(=O)N(c1nnc(SCC(=O)NCC(F)(F)F)s1)C1CC1	/	109
80	CCCc1nnc2sc(-c3cccnc3)nn12	113	/

#	Sa growth inh second temp	HCMV NEC inh
71	/	-25
72	86	-12
73	/	-16
74	92	/
75	92	/
76	91	-8
77	/	-27
78	72	-29
79	100	10
80	/	-18

Carrying on.
#	Molecule	GIV Gai3 FP	Sa growth inh
81	N=Nc1c(O)n(CC(=O)Nc2ccccc2)c2ccccc12	100	109
82	CC1(c2ccccc2)CC(c2ccccc2)=C(C#N)C(=O)N1 (stereo unspecified)	106	100
83	CC1(C)CC(NC(=O)CCc2ccccc2)CC(C)(C)N1	104	90
84	CCCC(=O)C1C(=O)CC(C)(C)C(c2cc(C)no2)C1=O (stereo unspecified)	/	107
85	COc1cccc(-n2c(=O)c3cc(OC)c(OC)cc3n(CC(=O)Nc3ccc(F)cc3)c2=O)c1	100	93
86	Cc1nc2ccc(C(=O)O)cc2s1	99	85
87	NCC(O)CN1CCN(Cc2ccccc2)CC1 (stereo unspecified)	106	103
88	O=C1CNC(=O)N1c1ccccc1	/	75
89	Cn1sc(=O)c2ccccc21	102	88
90	NC(=O)c1ccc(OCC(=O)c2ccc3c(c2)OCCO3)cc1	/	83

#	Sa growth inh second temp	HCMV NEC inh
81	90	-62
82	84	-36
83	79	13
84	93	-31
85	99	-8
86	90	/
87	90	-8
88	96	3
89	70	-36
90	92	-23

(further entries)
#	Molecule	GIV Gai3 FP	Sa growth inh
91	O=C(NC1CCCCC1)c1cccs1	103	82
92	Fc1ccc(CNCc2ccccn2)cc1	97	89
93	Cc1ccc(C)c(N2CCN(C(=O)CCn3cnc4cc(S(=O)(=O)N5CCCC5)ccc43)CC2)c1	113	/
94	Cc1ccc(NC(=S)Nc2ccc3nc(-c4ccco4)c(-c4ccco4)nc3c2)cc1	141	116
95	Cc1ccc(-c2nc3ncccc3o2)cc1NC(=O)CC(C)C	101	92
96	Cc1ccc(C)c(NC(=O)CSc2cn(CC(=O)N3CCCCC3)c3ccccc23)c1	106	79

#	Sa growth inh second temp	HCMV NEC inh
91	84	10
92	70	/
93	/	-16
94	64	0
95	86	1
96	80	/

Assay outcomes (PubChem)
